# miR-21 FLuc = qHTS Assay for Modulators of miRNAs and/orActivators of miR-21. HeLa miR-21 FLuc reporter, luciferase, 48 h. Potency, µM (top dose mostly 38.3 µM), for the others: at the highest dose reporter change, positive = more light. 340,000 tested, under 10 active. AID 2288, 2010; active = well fitted rising curve with a large enough effect; inconclusive = small, poorly fitted or top-dose-only effect; inactive = no such curve, though single readings can be large or run the other way;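 note: % of control where 0% means no effect; miR-21 action dims this reporter so a rising signal means less miR-21 action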
#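 Compounds were titrated across several concentrations (up to approximately 40 uM) and incubated 48 hours with HeLa miR-21-FLuc reporter cells (miR-21 target sequence downstream of FLuc, endogenous miR-21). Readout was firefly luciferase luminescence after lytic detection reagent.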
# GLA inh pH 4.5 = qHTS Assay for Inhibitors of Human alpha-Galactosidase at pH 4.5; AID 1467, 2008; purified enzyme, 4-MU-alpha-Gal fluorescence, pH 4.5; activity change, negative = inhibition, % at 105 µM; Alpha-galactosidase A (Homo sapiens), P06280; 230,000 tested, under 10 active; inconclusive = small, poorly fitted or top-dose-only inhibition, or a rising curve; inactive = flat fitted curve, though single readings scatter; no compound was filed as active;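 note: 0% = full activity with enzyme and -100% = basal without enzyme; dose as in the result columns while the protocol names 77 µM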
# Target sequence (P06280 whole entry, looked up): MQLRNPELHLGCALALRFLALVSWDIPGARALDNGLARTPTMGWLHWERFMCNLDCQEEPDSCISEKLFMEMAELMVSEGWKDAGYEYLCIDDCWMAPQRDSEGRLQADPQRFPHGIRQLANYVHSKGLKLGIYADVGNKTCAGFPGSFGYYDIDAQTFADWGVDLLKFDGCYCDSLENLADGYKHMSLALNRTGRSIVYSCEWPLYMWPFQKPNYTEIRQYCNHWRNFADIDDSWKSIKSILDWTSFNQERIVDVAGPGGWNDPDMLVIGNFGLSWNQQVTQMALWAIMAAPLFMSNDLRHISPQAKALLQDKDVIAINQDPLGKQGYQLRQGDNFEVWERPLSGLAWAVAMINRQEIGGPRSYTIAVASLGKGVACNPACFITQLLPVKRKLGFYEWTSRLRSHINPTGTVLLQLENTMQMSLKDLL
# Rango-impB inh = qHTS Assay for Inhibitors of Rango (Ran-regulated importin-beta cargo) - Importin beta complex formation | Potency, µM (highest dose often 92.2 µM), for the others: at the highest dose inhibition of complex formation | hit rate 0.031% among 340,000 | Rango CFP/YFP FRET sensor + importin beta, 45 min; active = rising FRET ratio curve, often small or poorly fitted; inconclusive = mostly compound fluorescence or quenching in the first reads; inactive = flat curves in all reads;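 note: potency is the fitted concentration of half-maximal effect; 0% = DMSO wells and 100% = buffer wells lacking importin beta; nearly all actives have a fitted effect of over 15% in size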
#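 FRET biosensor Rango (snurportin 1 IBB between N-terminal EYFP and C-terminal Cerulean), 50 nM in PBS/1 mM DTT/0.02% Tween-20/0.1% BSA, preincubated 5 min RT with compound; 0.125 microM importin beta added, 45 min RT, CFP/YFP FRET ratio read.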
# Rango dissoc inh = qHTS Assay for Inhibitors of RanGTP induced Rango (Ran-regulated importin-beta cargo) - Importin beta complex dissociation. Snurportin-1 (Homo sapiens) + GTP-binding nuclear protein Ran (Homo sapiens) + Importin …. Biochemical FRET Rango-importin beta, RanGTP-induced dissociation. Potency, µM (highest dose often 46.1 µM), without a hit: top-dose activity change, negative = inhibition. hit rate 0.071% among 340,000. AID 540253, 2011; active means falling FRET ratio curve, often poorly fitted, with flat reads before Ran was added; inconclusive means other falling curves, or compound fluorescence or quenching; inactive means flat or rising ratio curve;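 note: potency is the fitted concentration of half-maximal effect; % of control where 0% means no effect; nearly all actives have a fitted effect of over 45% in size; -100% = wells without RanGTP and RCC1; the record marks most hits as doubtful in a second field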
#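 Quantitative HTS using a FRET biosensor: 0.1 uM Rango, 0.25 uM importin beta, 0.6 uM Ran, 2 mM GTP, 0.2 uM RCC1 final, PBS with DTT, Tween-20 and BSA. Post-read taken 45 min after Ran addition.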
# An asterisk follows results filed as active; ? = inconclusive; nt = not tested or not shown; & = joins results of further samples.
SMILES,miR-21 FLuc,GLA inh pH 4.5,Rango-impB inh,Rango dissoc inh
COCCCNC(=O)CNC(=O)c1nn(-c2ccc(OC)cc2OC)c(=O)c2ccccc12,-1%,nt,0.5%,-6%
CCN(C[C@H]1N[C@@](CC)(C(=O)OC)[C@H]2C(=O)N(Cc3ccccc3)C(=O)[C@@H]12)C(=O)Nc1ccc(C(F)(F)F)cc1,nt,nt,-0.3%,-8%
CCOC(=O)C1CCN(C(=S)Nc2cccc(C)c2)CC1,-5%,-2,2.3%,18%
O=C(C[C@H]1C[C@H](C(=O)N2CCOCC2)[C@@]2(CCC3CCCC3)c3[nH]c4cc(-c5ccco5)ccc4c3CCN2C1=O)NCC12CC3CC(CC(C3)C1)C2,nt,nt,?,-2%
CN1CCN(C(=O)CN(Cc2ccccc2)S(C)(=O)=O)CC1,2%,0,-2.3%,0%
CCO[C@@H]1OC(C(=O)NCc2nc3ccccc3[nH]2)=C[C@H](c2coc3ccccc3c2=O)[C@H]1CCCO,nt,nt,-3.3%,-10%
COc1ccccc1C1/C(=C(/O)c2ccc(C)cc2)C(=O)C(=O)N1Cc1ccco1 (stereo not given),-2%,11,-4.1%,9%
Cc1nnc(SCc2ccccc2CSc2nnc(C)s2)s1,-11%,5,-1.8%,5%
COC(=O)[C@@]1(C)[C@H]2C(=O)N(Cc3ccccc3)C(=O)[C@H]2[C@H]2CN=C(SCC3CC3)N21,nt,nt,-1.1%,-7%
NC(=O)C1CCN(Cc2nc(-c3cccs3)no2)CC1,1%,-11,2.5%,1%
Cc1cccc(NS(=O)(=O)c2cc(C(=O)N3CCc4ccccc4C3)ccc2Cl)c1C,11%,-5,-1.3%,11%
COc1ccc(CN2C(=O)C(C)N(C(=O)c3c(F)cccc3F)c3ccccc32)cc1 (stereo not given),20%,nt,0.9%,10%
COc1ccc2c(c1)c1ncn(CCN3CCCC3)c(=O)c1n2C,-9%,22,-0.9%,1%
COc1ccccc1NC(=O)C(C/C=C(\C)Cl)C(C)=O (stereo not given),-4%,0,3.7%,-5%
CCCC(c1nnnn1CS(=O)(=O)c1ccc(C)cc1)N1CCC(C(N)=O)CC1 (stereo not given),-1%,nt,13%,1%
CN1C(=O)c2cccc(NC(=O)C3CCCCC3)c2C1=O,-1%,6,?,18%
CN(C)c1nccc(Nc2ccccc2)c1C#N,-32%,2,3.9%,-7%
COCCNc1oc(-c2ccccc2Cl)nc1C#N,-42%,-7,-3.7%,7%
Cc1nc2ccc(NC(=O)c3ccc(Cl)c(NC(=O)c4cccs4)c3)cc2s1,-18%,0,-1.7%,0%
CCNC(=O)COC(=O)c1cc(-c2ccco2)nc2ccccc12,-1%,4,?,-26%
Cn1nnnc1SCC(=O)Nc1ccccc1N1CCOCC1,0%,1,4.7%,-12%
CC(=O)N/C(=C\c1ccccc1)C(=O)N1CCOCC1,-5%,-7,11%,9%
CN(CC(=O)Nc1ccccc1Cl)C(=O)COC(=O)c1ccc([N+](=O)[O-])s1,nt,nt,1.3%,-5%
O=c1oc2ccccc2c(Nc2cccc3cccnc23)c1[N+](=O)[O-],-9%,9,2.7%,27%
C=CC[C@@H](CC(=O)N[C@@H](CO)Cc1ccccc1)C(=O)N[C@@H](COC(=O)[C@@H](CC=C)CC(=O)OC(C)(C)C)Cc1c[nH]c2ccccc12,nt,nt,0.8%,1%
CCC(NS(=O)(=O)c1ccc(C)cc1)C(=O)N1CCOCCOCCOCC1 (stereo not given),0%,nt,-1.8%,-4%
Cc1onc(-c2ccccc2)c1-c1nnc(CN2CCN(S(=O)(=O)c3ccccc3F)CC2)o1,nt,nt,2.0%,1%
COC(=O)N1CCN(c2ccc(C)c(C)c2)CC1,-19%,2,nt,nt
COc1ccc(-c2[nH]c(-c3cc(OC)c4c(c3)OCO4)nc2-c2ccccc2)cc1,21%,-25,4.2%,3%
Cc1cc(C)cc(OCC(=O)Nc2cnn(CCCC(=O)O)c2)c1,-1%,nt,-0.2%,14%
COc1cc(O)c(C(CCN2CCCCC2)c2cc(OC)c(OC)c(OC)c2)c(OC)c1 (stereo not given),6%,2,1.0%,-14%
Cc1ccc(C)c(CN2CCCN(C(=O)Cn3ncc4c3-c3ccccc3OC4)C2)c1,-1%,-8,0.0%,0%
O=c1cc(C23CC4CC(CC(C4)C2)C3)[nH][nH]1,-10%,6,1.8%,31%
O=S(=O)(Nc1ccc(Cc2ccncc2)cc1)c1ccc(Cl)cc1,1%,8,?,8%
CCC(C)Nc1ncnc2c1cnn2Cc1ccc(Cl)cc1 (stereo not given),19%,-18,-0.6%,-22%
CC(=O)NC1=NC(=O)CS1,0%,-2,-0.3%,-7%
O=C(O)CCCCCNC(=O)c1ccc(C(=O)NCCCCCC(=O)O)cc1,-2%,6,1.8%,-1%
c1ccc(-n2ncc3c(NCCN4CCCCC4)ncnc32)cc1,-41%,-7,-2.3%,-6%
CCCN(CCC)C(=O)c1oc2ccccc2c1NC(=O)Cc1cccc(OC)c1,-1%,nt,-3.5%,-11%
CCOC(=O)c1c[nH]c(=S)n1C,1%,1,-1.8%,11%
Cc1c(/C=C(\C#N)c2nn(-c3ccccc3)c(N)c2C#N)c2ccccc2n1Cc1ccc(F)cc1,-4%,1,0.1%,-27%
O=C(CSc1nnc(-c2ccccc2Cl)o1)Nc1ccccn1,-29%,2,0.1%,-13%
CC(C(=O)NNS(=O)(=O)c1cccc(C(F)(F)F)c1)n1nnc(N2CCOCC2)n1 (stereo not given),-9%,-6,-4.3%,1%
Cc1cc2ccccn2c1C(=O)c1nc(N2CCOCC2)ncc1Cl,-7%,0,0.5%,-12%
CCOc1cc(/C=C2/SC(=S)N(Cc3ccccc3)C2=O)ccc1O,-21%,nt,?,?
Cc1ccc(NC(=O)CN2C(=O)COc3ccc(S(=O)(=O)N4CCOCC4)cc32)cc1N(C)C,-5%&2%,nt,-1.3%,-5%
CC(=O)c1ccc(NC(=O)CSc2nnc3ccc(-c4ccccn4)nn23)cc1,nt,nt,2.4%,8%
Cc1cccc(Oc2ccc(NC(=O)C3=CC=CN4CCS(=O)(=O)N=C34)cc2)c1,nt,nt,9.4%,31%
COc1ccc(C(=O)Nc2ccc(Oc3nc(C)nc4sc(-c5ccccc5)cc34)cc2)cc1OC,0%,6,4.1%,37%
COCc1cc(C)nc(N2CCc3ccccc32)c1C#N,-8%,15,?,?
CCC(=O)Nc1cccc(C2=NOC3(C2)C[C@@H](C(N)=O)N(C(=O)c2ccc(OC)cc2)C3)c1 (stereo not given in full),3%,-2,-2.0%,-3%
Cc1ccc(NC(=O)COC(=O)C(NS(=O)(=O)c2ccc(Cl)cc2)C(C)O)cc1 (stereo not given),-7%,1,-1.0%,2%
CCCn1c(=O)c2ccccc2n2c(Sc3nnnn3-c3ccccc3)nnc12,-1%,4,-6.5%,-1%
C=CCOc1ccc(C(=O)c2ccccc2)c(OCC(=O)NC2(C#N)CCCC2)c1,6%,nt,-0.4%,-5%
CCOc1ccc(NC(=S)NNC(=O)CC(C)O)cc1 (stereo not given),2%,7,0.9%,-5%
O=C1c2oc3ccccc3c(=O)c2C(c2cccnc2)N1CCCN1CCOCC1 (stereo not given),-6%,-4,2.8%,11%
CCN(CC)c1cc(Cl)c2nonc2c1N,-7%,-10,1.1%,3%
COc1ccc(OC)c(/C=N/NC(=O)CSc2nnc(C)n2-c2ccccc2)c1,5%,-15,3.3%,9%
CCOc1ccc(NC(=O)NC(C)c2ccc3c(c2)OCO3)cc1 (stereo not given),-1%,nt,-0.2%,-13%
COc1cc2[nH]c(=O)n(CCC(=O)N3CCc4ccccc4C3)c(=O)c2cc1OC,-4%,4,2.4%,10%

# Part of the list above in order of count of non-hydrogen atoms, lowest first:
SMILES,miR-21 FLuc,GLA inh pH 4.5,Rango-impB inh,Rango dissoc inh
CCOc1ccc(NC(=S)NNC(=O)CC(C)O)cc1 (stereo not given),2%,7,0.9%,-5%
CCOc1ccc(NC(=O)NC(C)c2ccc3c(c2)OCO3)cc1 (stereo not given),-1%,nt,-0.2%,-13%
COc1ccc(OC)c(/C=N/NC(=O)CSc2nnc(C)n2-c2ccccc2)c1,5%,-15,3.3%,9%

# Limited to GLA inh pH 4.5, Rango dissoc inh and Rango-impB inh, for some of the entries so far:
molecule | GLA inh pH 4.5 | Rango dissoc inh | Rango-impB inh
Cc1c(/C=C(\C#N)c2nn(-c3ccccc3)c(N)c2C#N)c2ccccc2n1Cc1ccc(F)cc1 | 1 | -27% | 0.1%
O=C(CSc1nnc(-c2ccccc2Cl)o1)Nc1ccccn1 | 2 | -13% | 0.1%

# Later entries:
SMILES,miR-21 FLuc,GLA inh pH 4.5,Rango-impB inh,Rango dissoc inh
CC1CC(=O)Nc2ccccc2N1C(=O)CN1CCN(C=O)CC1 (stereo not given),-1%,-7,-0.3%,8%
N#Cc1ccc(-c2ccc(F)cc2)nc1SCC(=O)Nc1sc2c(c1C#N)CCC2,0%,-1,?,?
CCN(C(=O)COC(=O)CNC(=O)c1ccccc1C)C1=CCCCC1,nt,nt,-4.7%,-6%
COc1ccc(CNC(=O)[C@@H](NC(=O)C2CCN(C(=O)[C@@H](N)CC(C)C)CC2)C(C)C)cc1,-1%,nt,-0.4%,0%
Cc1cc(Cl)ccc1NC(=O)CN1C(=O)CSc2ccc(S(=O)(=O)N3CCOCC3)cc21,-5%,nt,-3.7%,-2%
Cc1ccc2cc(C#N)c(NCCNC(=O)C3CC3)nc2c1C,-7%,5,?,?
O=C(COC(=O)Cn1cc(C(F)(F)F)ccc1=O)Nc1ccccc1,nt,nt,1.1%,1%
CCN1CCN(c2nc(-c3ccccc3Cl)nc3ccccc23)CC1,-10%,nt,0.6%,-10%
COCCCNC(=O)C1CCN(S(=O)(=O)c2c(C)noc2/C=C\c2ccc(OC)cc2)CC1,-6%,2,2.1%,1%
C=CCNC(=S)NNC(=O)c1ccccc1OCC,3%,0,-5.6%,0%
CC(NC(=O)c1ccco1)C(=O)Nc1nccs1 (stereo not given),nt,nt,-2.9%,5%
CC1(C)Cc2ccccc2-c2nnc(-c3ccc4ccccc4n3)n21,-14%,5,0.6%,-6%
CCCCN(C)C(=O)c1nc2ccccn2c1CNC1CCC1,-4%,1,3.3%,11%
O=C(Nc1cccc(-c2nnc(-c3ccccc3)o2)c1)c1ccco1,-15%,11,?,-16%
COc1ccc(OCCC(=O)OCC(=O)Nc2ccc(Br)cc2)cc1,-4%,5,1.3%,-18%
C#CCCOC(=O)N1C2=NC(C(=O)OC)=C(C(=O)OC)[C@@H]3N(C)c4ccccc4[C@]23C[C@H]1CO,nt,nt,-1.8%,-2%
Cc1cc(C)c(S(=O)(=O)N2CCCCC2CCNC(=O)C(=O)NCc2cccnc2)c(C)c1 (stereo not given),nt,nt,1.3%,16%
COc1cc(NC(=O)c2cc(C(C)C)on2)c(OC)cc1Cl,6%,-2,1.1%,27%
CC(C)CC(=O)N=Nc1c(O)[nH]c2ccccc12,-59%,-8,-0.8%,-3%
O=C(COc1nc2ccccc2nc1N1CCOCC1)Nc1ccc(S(=O)(=O)N2CCCC2)cc1,0%,-1,?,-8%

# Three entries out of the list above, sorted by the number in Rango dissoc inh, falling:
Molecule	miR-21 FLuc	GLA inh pH 4.5	Rango-impB inh	Rango dissoc inh
O=C(COC(=O)Cn1cc(C(F)(F)F)ccc1=O)Nc1ccccc1	nt	nt	1.1%	1%
O=C(Nc1cccc(-c2nnc(-c3ccccc3)o2)c1)c1ccco1	-15%	11	?	-16%
COc1ccc(OCCC(=O)OCC(=O)Nc2ccc(Br)cc2)cc1	-4%	5	1.3%	-18%

# Record cards, as listed above.
# O=C(COc1nc2ccccc2nc1N1CCOCC1)Nc1ccc(S(=O)(=O)N2CCCC2)cc1 is entered as miR-21 FLuc: 0%; GLA inh pH 4.5: -1; Rango-impB inh: ?; Rango dissoc inh: -8%
# O=C(COC(=O)Cn1cc(C(F)(F)F)ccc1=O)Nc1ccccc1 is entered as miR-21 FLuc: nt; GLA inh pH 4.5: nt; Rango-impB inh: 1.1%; Rango dissoc inh: 1%

# A portion of the library, so the mix of outcomes need not match the whole.
